Source: PubChem BioAssay
HSV augment: increases HSV replication in cells; HSV replication augmentation in cells, fold increase; maximum fold increase; 220,000 compounds, 0.005% hits; AID 1956;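 active = peak rise of 1.5-fold or more in the series; tested in PC3 cells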;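 also: first round at 10 µM; read as green reporter fluorescence; hits show the peak of a series up to 25 µM; 1 = signal of infected wells without compound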
PKD1 kinase inh: PKD1 (human) kinase inhibition; inhibition, %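 (about 10 µM by stock and volumes)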; Q15139; 200,000 compounds, 0.056% hits; AID 797; PKD1 kinase fluorescence polarization assay;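 active = inhibition of 50% or more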;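 also: controls were vehicle for no effect and a reference inhibitor for full effect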
Insulin prom inh: TRM-6 insulin promoter activity inhibition; TRM-6 cells (human fetal islet line), insulin promoter-eGFP reporter, imaging; reporter expression induced with tamoxifen; inhibition, % at 2 µM; 130,000 compounds, 0.9% hits;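 active = inhibition above the mean plus 3 SD, with well images judged a real hit on visual review, cut at about 60% in these data, passing the limit was not always enough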
GALR2 agonist: activates the human galanin receptor 2. GALR2-expressing cells, agonist activation read-out. activation, %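 (tested at 5 µM)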. 140,000 compounds, 0.48% hits. AID 803;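 active = above mean plus 3 SD of all compounds, about 5% in these data, not always enough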;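 also: 0% = vehicle buffer wells and 100% = reference agonist at full effect; tested in CHO reporter cells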
Target sequence (O43603 whole entry, looked up): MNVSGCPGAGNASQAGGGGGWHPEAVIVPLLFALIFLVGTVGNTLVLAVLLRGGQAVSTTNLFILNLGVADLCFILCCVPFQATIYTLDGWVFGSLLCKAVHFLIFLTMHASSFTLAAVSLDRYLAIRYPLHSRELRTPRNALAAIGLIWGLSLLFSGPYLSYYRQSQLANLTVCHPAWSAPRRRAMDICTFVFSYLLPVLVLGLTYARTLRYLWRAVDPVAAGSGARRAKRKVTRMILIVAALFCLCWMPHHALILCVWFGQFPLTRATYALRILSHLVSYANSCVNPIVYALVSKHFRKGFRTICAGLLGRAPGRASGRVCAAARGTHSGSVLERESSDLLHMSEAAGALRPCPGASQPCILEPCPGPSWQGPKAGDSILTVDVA
RGS16-Gao: RGS16-Galphao interaction regulator (human); O15492+P09471; bead-based flow cytometry RGS16-Galphao binding, fluorescence; actives lie on both sides; binding response (% of control), % at 10 µM; 220,000 compounds, 0.38% hits;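 active = below 25% or above 175%, edge rows of some plates excepted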;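 also: Galphao activated by GDP with aluminum fluoride before binding; 100% = wells without compound and 0% = beads without RGS; some results beyond the cut were filed as inactive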
Target sequence (O15492 whole entry, looked up): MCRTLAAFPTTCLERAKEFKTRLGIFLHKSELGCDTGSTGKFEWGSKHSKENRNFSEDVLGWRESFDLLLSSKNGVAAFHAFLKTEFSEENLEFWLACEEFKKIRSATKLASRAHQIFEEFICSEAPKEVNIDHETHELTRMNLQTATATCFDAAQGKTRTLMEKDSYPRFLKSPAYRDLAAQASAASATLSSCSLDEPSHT
Target sequence (P09471 whole entry, looked up): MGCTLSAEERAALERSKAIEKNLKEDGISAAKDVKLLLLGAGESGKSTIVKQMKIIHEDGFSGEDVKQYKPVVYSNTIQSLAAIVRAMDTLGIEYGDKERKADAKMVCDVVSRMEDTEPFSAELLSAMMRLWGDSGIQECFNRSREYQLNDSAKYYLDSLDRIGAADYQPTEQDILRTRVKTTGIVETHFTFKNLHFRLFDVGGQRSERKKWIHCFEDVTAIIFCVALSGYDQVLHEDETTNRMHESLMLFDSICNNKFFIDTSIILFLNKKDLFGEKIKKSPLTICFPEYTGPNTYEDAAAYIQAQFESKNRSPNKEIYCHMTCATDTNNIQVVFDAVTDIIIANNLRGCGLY
Insulin prom inh cell count: recorded beside Insulin prom inh, whose call it bears; normalized cell count, %; measured here: cell count, toxicity; reference of the scale not given here;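 cells exposed to compound for 48 h; stained nuclei by imaging scaled within each plate; lower means fewer cells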
HSV augment primary fold: second read-out of HSV augment, no call of its own (marks repeat the call); fold increase; compound at 10 µM; measured here: primary screen fold increase 10 uM; tested in PC3 cells;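 GFP signal in the first replicate; 1 = infected wells without compound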
The depositor's hits bear a star; i = inactive; · = not tested or not shown.

SMILES | HSV augment | HSV augment primary fold | PKD1 kinase inh | Insulin prom inh | Insulin prom inh cell count | GALR2 agonist | RGS16-Gao
O=C(Nc1ccc2[nH]c(=O)[nH]c2c1)c1c(F)c(F)c(F)c(F)c1F | i | 0.98 | 3 | 17 | 108 | · | 101
COc1ccc(NC(C)=O)cc1NC(=O)CSc1nnc(-c2ccncc2)n1C | i | 0.96 | -7 | -48 | 206 | -3.2 | 103
Cc1ccccc1C1CCCN(C(=O)c2cc(COc3c(F)cccc3F)on2)C1 (centres undefined) | i | 1.1 | -7 | · | · | · | 84
CC(C)(C)C1CCc2c(sc(N)c2C(N)=O)C1 (centres undefined) | i | 1 | -2 | 26 | 135 | 0.7 | 157
O=C(N/N=C/c1ccsc1)c1ccccn1 | i | 1.1 | -5 | -85 | 58 | · | 103
CC(=O)OCCNC(=O)Cn1cnc2c1c(=O)n(C)c(=O)n2C | i | 0.96 | -1 | · | · | -1.5 | 107
O=C(CSc1nc(-c2ccc(Cl)cc2)cs1)Nc1cccc([N+](=O)[O-])c1 | i | 1.1 | -12 | · | · | -1.5 | 147
Cc1ccc2oc(-c3ccccc3C(=O)O)cc(=O)c2c1 | i | 1.1 | -5 | 20 | 123 | -2.7 | 103
CCC(=O)Nc1ccc(S(=O)(=O)Nc2cc(C)on2)cc1 | i | 0.76 | -6 | 41 | 113 | -1.8 | 102
CC1=C(C(=O)OC(C)C)C2(O)C(=O)c3ccccc3C2(O)N1 (centres undefined) | i | 1 | 17 | -471 | 53 | -0.1 | 106
CCCCC(CC)CNC(=O)Cn1c(=S)[nH]c2ncccc2c1=O (centres undefined) | i | 0.92 | 1 | 9 | 113 | · | 112
COCCNC(=O)c1cc(-c2ccccc2OC)on1 | i | 0.72 | -18 | · | · | -1.0 | 105
CCCCNC(=S)NNC(=O)c1c(Cl)c(C)nn1C | i | 0.96 | 4 | -8 | 125 | -1.1 | 104
CCN(CC)c1ccc(/C=C(\C#N)C(=O)NCc2ccccc2)cc1 | i | 1.3 | 4 | -31 | 157 | 0.4 | 94
O=C(CC(c1ccccc1)C1CCCCC1=O)c1ccco1 (centres undefined) | i | 1 | 0 | -35 | 87 | -2.0 | 105
CC12CCCCC1(O)[N+](=O)C1=C(CCCC1)N2[O-] (centres undefined) | i | 0.82 | 1 | · | · | -3.1 | 72
CC1CN(C(=O)Nc2ccc(F)cc2)C2(CCCCCC2)O1 (centres undefined) | i | 1 | -2 | · | · | · | 103
CC(C)NC(=O)CSc1nnc2sc3ccccc3n12 | i | 0.88 | -1 | · | · | -3.0 | 102
O=C(NCCN1CCOCC1)N1c2ccccc2Sc2ccccc21 | i | 0.84 | 1 | -23 | 131 | -2.5 | 101
O=C(NCC(c1cccs1)N1CCOCC1)c1ccc(Cl)c([N+](=O)[O-])c1 (centres undefined) | i | 0.99 | -9 | · | · | -1.6 | 99

Among those listed so far, these have an aryl methoxy group.
SMILES | HSV augment | HSV augment primary fold | PKD1 kinase inh | Insulin prom inh | Insulin prom inh cell count | GALR2 agonist | RGS16-Gao
COc1ccc(NC(C)=O)cc1NC(=O)CSc1nnc(-c2ccncc2)n1C | i | 0.96 | -7 | -48 | 206 | -3.2 | 103
COCCNC(=O)c1cc(-c2ccccc2OC)on1 | i | 0.72 | -18 | · | · | -1.0 | 105

(more compounds)
SMILES | HSV augment | HSV augment primary fold | PKD1 kinase inh | Insulin prom inh | Insulin prom inh cell count | GALR2 agonist | RGS16-Gao
CCOc1ccccc1C(=O)NCC(=O)OCC(=O)N1C(C)CCCC1C (centres undefined) | i | 1 | -13 | -23 | 100 | -2.0 | 100
CCOC(=O)CNc1c(-c2ccc(OC)cc2)nc2ccc(Cl)cn12 | i | 0.9 | -2 | 62 | 170 | -1.3 | 104
COC(=O)C1=C(C)NC(=S)NC1c1ccc(OC(=O)c2ccco2)cc1 (centres undefined) | i | 1 | -2 | · | · | · | 102
O=C(Nc1nnc(C2CCCC2)s1)C1CCN(S(=O)(=O)c2ccc(Cl)cc2)CC1 | i | 1.1 | -3 | 9 | 172 | -0.2 | 100
CC(NC(=S)Nc1ccccc1)C(c1cccs1)N1CCOCC1 (centres undefined) | i | 1 | · | · | · | · | 99
Cc1ccc(-n2c(SCc3cc(=O)n4ccsc4n3)nnc2-c2cccnc2)c(C)c1 | · | · | -6 | · | · | -3.6 | 92
CC1CCc2c(sc3nc(CSc4nnnn4C)[nH]c(=O)c23)C1 (centres undefined) | i | 1.1 | · | · | · | · | 107
COc1ccccc1-n1c(N)c(C(=O)NCC2CCCO2)c2nc3ccccc3nc21 (centres undefined) | i | 1 | -6 | -6 | 119 | 2.7 | 98
Cc1cc(C)cc(N=c2c([N+](=O)[O-])nn(-c3cccc(Cl)c3)n2O)c1 | i | 0.86 | -4 | 27 | 120 | -3.8 | 101
Cc1cc(C)n(CC(=O)N/N=C/c2ccc3c(c2)OCO3)n1 | i | 1 | -7 | 3 | 84 | -0.2 | 103
Cc1ccc(-c2[nH]c3ccccc3c2SCCNC(=O)c2ccc(S(=O)(=O)N3CCOCC3)cc2)cc1 | i | 0.9 | -6 | -46 | 89 | 0.4 | 100
CN1CCCN(C(=O)Cc2c(Cl)cccc2Cl)c2nc3ccccc3nc21 | i | 3.3 | 3 | -45 | 94 | 6.6 | 90
O=C(c1cccc(C(F)(F)F)c1)C1CCCN(C(=O)CCCn2cncn2)C1 (centres undefined) | i | 0.95 | -1 | · | · | · | 96
CCc1nnc(NC(=O)c2ccc(S(=O)(=O)NCC(C)C)cc2)s1 | i | 1.1 | 1 | 51 | 85 | -0.6 | 91
CC(=O)N1N=C(c2ccccc2)CC1c1cn(Cc2ccccc2)c2ccccc12 (centres undefined) | i | 0.93 | 1 | 10 | 119 | -0.2 | 103
COc1ccc(OC)c(C2CC(=O)C(C)C(c3cc(OC)ccc3OC)N2)c1 (centres undefined) | i | 0.88 | -11 | 62 | 135 | -2.4 | 95
COCCn1nc2cc(C(=O)NCc3cc(C(F)(F)F)cc(C(F)(F)F)c3)ccc2c1OC | i | 0.78 | 1 | · | · | -2.8 | 100
CCOc1ccc(CCNC(=O)CN2C(=O)NC(CCSC)C2=O)cc1OCC (centres undefined) | i | 0.92 | 0 | · | · | · | 100
CNc1nc(OCC(F)(F)F)nc(N2CCOCC2)n1 | i | 0.81 | -3 | 35 | 116 | -1.4 | 103
Cc1cccc(N2C(=O)C3CCC(c4ccccc4)CC3C2=O)c1 (centres undefined) | i | 0.91 | -6 | 0 | 124 | -0.7 | 104

Shown as labelled records: part of the list above.
structure: Cc1ccc(-c2[nH]c3ccccc3c2SCCNC(=O)c2ccc(S(=O)(=O)N3CCOCC3)cc2)cc1
  HSV augment = i
  HSV augment primary fold = 0.9
  PKD1 kinase inh = -6
  Insulin prom inh = -46
  Insulin prom inh cell count = 89
  GALR2 agonist = 0.4
  RGS16-Gao = 100
structure: CN1CCCN(C(=O)Cc2c(Cl)cccc2Cl)c2nc3ccccc3nc21
  HSV augment = i
  HSV augment primary fold = 3.3
  PKD1 kinase inh = 3
  Insulin prom inh = -45
  Insulin prom inh cell count = 94
  GALR2 agonist = 6.6
  RGS16-Gao = 90

Individual results from the list:
HSV augment primary fold with CC1CN(C(=O)Nc2ccc(F)cc2)C2(CCCCCC2)O1 (centres undefined) stands at 1
GALR2 agonist with COCCNC(=O)c1cc(-c2ccccc2OC)on1 stands at -1.0
HSV augment primary fold with COC(=O)C1=C(C)NC(=S)NC1c1ccc(OC(=O)c2ccco2)cc1 (centres undefined) stands at 1

Following part.
SMILES | HSV augment | HSV augment primary fold | PKD1 kinase inh | Insulin prom inh | Insulin prom inh cell count | GALR2 agonist | RGS16-Gao
Cc1sc2c(c1C)c(=O)nc1n2Cc2ccccc2-1 | · | · | -10 | -25 | 137 | 0.1 | 104
Cc1c(C)c(C)c(CN2CCCC2)c(C)c1C | i | 0.88 | · | · | · | · | 100
CC(C)CNC(=S)NNC(=O)c1ccccc1OC(F)F | i | 1.1 | -13 | 24 | 100 | -2.6 | 99
CCNc1nc(NC(C)C)nc(N2CC(=O)N(CC(=O)OCC)C2=N)n1 | i | 1 | 18 | -344 | 69 | 1.0 | 107
CCc1c(O)nc(SCC(=O)Nc2ccc(OC)cc2)n(C2CCCCC2)c1=O | i | 0.9 | -1 | 15 | 119 | -1.0 | 102
O=C(c1ccccc1)N1CCN(c2ccc([N+](=O)[O-])c(N3CCOCC3)c2)CC1 | i | 1.1 | -2 | -12 | 105 | -1.5 | 103
O=C(CCCOc1ccccc1)Nc1nccs1 | i | 1.2 | -5 | -47 | 66 | -2.0 | 104
CCNC(=O)CN1C(=O)NC2(CCCc3cc(OC)ccc32)C1=O (centres undefined) | i | 1 | -10 | 13 | 100 | -3.8 | 100
Cc1ccc(N/C=C(/C#N)c2ccsc2)cc1C | i | 0.94 | 7 | -7 | 135 | -0.2 | 104
COc1ccc(C(c2nnnn2Cc2cccs2)N2CCN(c3ccccc3F)CC2)cc1OC (centres undefined) | · | · | -9 | · | · | -1.1 | 102
Cc1ccc2nc(-c3ccc(NC(=S)NC(=O)CC(C)C)cc3)sc2c1 | i | 0.98 | -4 | 17 | 92 | -1.9 | 98
O=C(CCc1nc2ccccc2[nH]c1=O)OCC(=O)c1ccc(Cl)cc1 | i | 0.69 | -2 | 3 | 138 | -0.8 | 100
CC(=O)Nc1ccccc1Nc1cc(C#N)c(C#N)cc1[N+](=O)[O-] | i | 0.83 | -8 | 25 | 109 | -2.5 | ·
O=C1CC(c2ccc(F)cc2)Cc2nc(N3CCOCC3)ncc21 (centres undefined) | i | 0.94 | -7 | 45 | 186 | -2.7 | 106
COc1ccc(C(=O)CSc2nnnn2C)c(OC)c1 | i | 0.97 | -2 | 26 | 156 | · | 99
Cn1c2c(c(=O)n(C)c1=O)C(c1ccccc1OC(F)F)C1=C(CCCC1=O)N2 (centres undefined) | i | 0.92 | -7 | · | · | 1.3 | 109
CCOC(=O)CSc1nnnn1-c1cccc2ccccc12 | i | 1 | -5 | 12 | 116 | -0.8 | 88
CC(=O)c1cnc(SCC(=O)O)nc1C | i | 0.91 | 0 | · | · | · | 103
COc1ccc(OC)c(-c2csc(NC(=O)c3ccc(OCC4CCCO4)cc3)n2)c1 (centres undefined) | i | 0.84 | -6 | · | · | -1.4 | 102
O=C(/C(N=Nc1cccc(C(F)(F)F)c1)=C(/O)c1cccs1)C(F)(F)F | i | 1.3 | · | · | · | · | 102
CN(C)c1nc2n(c(=S)n1)CCS2 | i | 0.91 | -3 | -81 | 111 | -1.3 | 100
CSC1=NCCN1C(=O)Cc1ccc(-c2ccccc2)cc1 | i | 0.95 | 0 | -10 | 129 | · | 118
CC(C(=O)NCC1CCCO1)N(C(=O)c1snc(C(N)=O)c1N)c1ccccc1 (centres undefined) | i | 0.84 | -6 | -63 | 112 | -0.2 | 105
Cc1cc(NC2CCCCC2)nc(-c2ccccc2O)n1 | i | 0.88 | -7 | -37 | 105 | -3.0 | 102
Cc1ccc(C(=O)CC2(O)C(=O)N(C)c3ccccc32)s1 (centres undefined) | i | 0.78 | -8 | 27 | 158 | · | 104
CCNc1nc(Oc2ccc(C(=O)OC)cc2)nc(N(C)C)n1 | i | 0.92 | -1 | 23 | 45 | 1.3 | 99
OCCNc1nc2ccccc2n1-c1ccccc1 | i | 0.84 | -5 | -293 | 39 | -2.6 | 89
Cc1c(C(=O)O)sc(=S)n1-c1ccc(Cl)cc1 | i | 1.2 | -6 | -29 | 219 | -1.6 | 102
CCN(CC)c1ccc(CNCc2cccs2)cc1 | i | 0.98 | -5 | · | · | · | 95
CC(c1ccon1)N(C)C(=O)CCc1nnc(Cc2ccc(-c3ccccc3)cc2)o1 (centres undefined) | i | 0.91 | -2 | · | · | · | 101
CC(C)C(=O)Nc1cccc(C(=O)NCc2ccc3c(c2)OCO3)c1 | i | 0.98 | -6 | -33 | 81 | -1.7 | 105

Limited to HSV augment (five entries from above):
Compound,HSV augment
CSC1=NCCN1C(=O)Cc1ccc(-c2ccccc2)cc1,i
CC(C(=O)NCC1CCCO1)N(C(=O)c1snc(C(N)=O)c1N)c1ccccc1 (centres undefined),i
Cc1cc(NC2CCCCC2)nc(-c2ccccc2O)n1,i
Cc1ccc(C(=O)CC2(O)C(=O)N(C)c3ccccc32)s1 (centres undefined),i
CCNc1nc(Oc2ccc(C(=O)OC)cc2)nc(N(C)C)n1,i

Compounds as they come (roughly 1.1% active in at least one column).
